# Screens deposited in PubChem by National Center for Advancing Translational Sciences (NCATS).
# Anthrax LT inh: qHTS Assay for Anthrax Lethal Toxin Internalization; hit rate 0.67% among 70,000; Cells, anthrax lethal toxin internalization, FRET ratio (460/530); Potency, µM (top dose mostly 40 µM), for the others: at the top dose activity change, negative = inhibition, most hits filed as inhibitors; active = well fitted falling ratio curve with the 530 nm signal flat; inconclusive = other ratio curves, or a change in one channel alone; inactive = flat curves in the ratio and both channels; the % refers to the ratio; further: on the % scale 0 is the no-effect control and ±100 the full control effect; nearly all actives have a fitted effect of over 50% in size; tested in ME-180 cells; beta-lactamase reporter
# Prx2 Sm inh: Schistosoma Mansoni Peroxiredoxins (Prx2). S. mansoni Prx2 activity coupled to TGR/GSH (TGR is thioredoxin glutathione reductase), NADPH fluorescence loss, qHTS; some inactives read as strong as hits. Potency, µM. hit rate 0.07% among 65,000. AID 448, 2006; active means full or partial inhibition curve with a strong effect at the top dose; inconclusive means weaker partial or single-point curve; inactive means no accepted curve; further: series up to 57 µM; many of its hits are not listed in these tables
#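 Enzyme mix: 100 uM NADPH, 25 nM TGR, 700 uM GSH, 50 nM Prx2 in 100 mM phosphate pH 7.4, 10 mM EDTA, 0.01% Tween-20. 15 min RT with compound; NADPH/GSH added, H2O2 starts reaction; NADPH fluorescence read 8 min.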
# * hit, by the source's call; ? = inconclusive; nt = no result given; [ ] = dose if it differs, or a comment. Potency means the concentration at half of the fitted maximal effect. An excerpt. The share of hits here may be higher or lower than overall.
SMILES,Anthrax LT inh,Prx2 Sm inh
COC(=O)C1C2C=CC3(CN(CCc4ccccc4)C(=O)C13)O2 (configuration not stated),23%,>57
O=C(NCCN1CCCCC1)c1ccc(I)cc1,-18%,>57
CCC[C@@H]1C[C@@]1(CCC)C(NC(=O)OCc1ccccc1)c1ccc(-c2ccccc2)cc1 (some centres not stated),-16%,>57
CCOc1ccccc1OCc1nn2c(COc3ccccc3)nnc2s1,-2%,nt
COc1ccc(C(=O)Oc2cccnc2)cc1OC,-7%,>57
COC(=O)[C@@]1(Cc2ccc(OC)cc2)[C@H]2c3cc(C(=O)N(C)C)n(Cc4ccc(C)c(F)c4F)c3C[C@H]2CN1C(=O)c1ccccc1,?,>57
Cc1cc(-c2[nH]nc3c2C(c2ccsc2)C(C#N)=C(N)O3)c(C)s1 (configuration not stated),6%,>57
COc1ccc(C(=O)NCCc2c[nH]c3ccccc23)cc1S(=O)(=O)N1CCOCC1,20%,>57
COc1ccc(CC(=O)NC2CCN(Cc3nnnn3C(C)(C)C)CC2)cc1OC,9%,>57
Cn1c(=O)[nH]c(=O)c2c1nc(N1CCOCC1)n2CCCSc1ncccn1,nt,>57
COc1ccc(OC)c(NC(=O)C2CCCN2C(=O)C2CCC(C)CC2)c1 (configuration not stated),9%,>57
CC1CCCN(C(=O)CSc2nnc(-c3c[nH]c4ccccc34)o2)C1 (configuration not stated),-4%,>57
C=CCn1c(NCc2ccc3c(c2)OCO3)nc2ccccc21,-9%,>57
CCOC(=O)c1c(N)sc2c1C1CCN2CC1,-1%,>57
CCOC(=O)N1CCN(Cc2nc3c(c(=O)n(C)c(=O)n3C)n2Cc2cccc3ccccc23)CC1,-3%,>57
C=C1CC[C@H](O)C/C1=C/C=C1\CCC[C@]2(C)[C@H]1CC[C@H]2[C@@H](C)/C=C\[C@@H](C)C(C)C,?,>57
CC1CC(=O)N(Cc2ccccc2)c2ccccc2N1C=O (configuration not stated),-6%,>57
CC(C)CN1CCC2(CC1)CCN(C(=O)c1cccc(F)c1)CC2,?,>57
Cc1ccc(NCc2nnc(SCC(=O)N3CCc4ccccc43)n2C)cc1,8%,>57
CC(C)NC(=O)N1CCCC2(CCN(C(=O)c3csnn3)CC2)C1,-10%,>57
CCOc1ccc(NC2=NC(C(=O)NCc3ccccc3)CC(=O)N2)cc1 (configuration not stated),-3%,>57
COCCNC(C)C(=O)C12CC3CC(CC(C3)C1)C2 (configuration not stated),5%,>57
O=C(O)c1ccc(S(=O)(=O)c2ccc3c(c2)C(=O)N(CC2CCCO2)C3=O)cc1 (configuration not stated),-5%,nt
CCCC(=O)NC(C)c1nc2ccccc2n1CC (configuration not stated),0%,>57
COc1ccc(C(c2nnnn2Cc2ccc(F)cc2)N2CCN(c3ccccc3)CC2)cc1 (configuration not stated),?,>57
COc1ccc(N2CC(C(=O)OCC(=O)c3cccc(OC)c3)CC2=O)cc1 (configuration not stated),11%,>57
Cc1ccnc(NC(=O)CSc2cc(=O)n(C)c3ccccc23)c1,2%,>57
CCOc1cc2c3c(c1)C1(OCCO1)C(=O)N3C(C)(C)CC2C (configuration not stated),13%,>57
CC(Sc1ccc2nnc(-c3ccc(F)cc3)n2n1)C(=O)O (configuration not stated),-3%,>57
CC(C)c1cc(C(=O)N2CCN(C(c3ccccc3)c3ccccc3)CC2)no1,-16%,nt
CC(C)N=C(NC#N)SCc1ccccc1F,?,>57
O=C(c1cc(-c2cccc(O)c2)on1)N1CCCCC1,-13%,>57
CCCCCCCCCCCCCCCC(=O)NC[C@@H](COP(=O)([O-])OCC[N+](C)(C)C)OCC,?,?
COc1cc(-c2nnc3sc(Cc4ccccc4)nn23)cc(OC)c1OC,-11%,>57
CNc1oc(C)nc1S(=O)(=O)c1ccccc1,-1%,nt
COc1ccc(N2C(=O)CC(NCc3cccs3)C2=O)cc1 (configuration not stated),-8%,>57
CN(CCCNC(=O)c1cccc(N2CCCC2=O)c1)c1ccccc1,4%,>57
Cc1csc(NC(=O)CCNS(=O)(=O)c2ccc3c(c2)c(=O)n(C)c(=O)n3C)n1,-3%,>57
COCCNC(=O)NC(=O)COC(=O)C12CC3CC(CC(NC(C)=O)(C3)C1)C2,-4%,>57
CC(C)Oc1cc(O)c2c(=O)c(-c3ccc(O)cc3)coc2c1,?,>57
O=c1c(-c2cccc(Cl)c2)nc2cncnc2n1Cc1ccccc1Cl,?,>57
Cc1ccc(-n2c(SCc3cn4ccsc4n3)nc3ccccc3c2=O)cc1,3%,>57
Cc1c(NC(=O)C2CC=CCC2C(=O)O)c(=O)n(-c2ccccc2)n1C (configuration not stated),-2%,nt
Cc1cc(NC(=O)COC(=O)CSc2nc3cc(Cl)ccc3n2Cc2ccccc2)no1,-1%,>57
COc1cc(C2NC(=O)NC(C)=C2C(=O)OCC2CCCO2)ccc1O (configuration not stated),-7%,nt
Cc1ccc(C(CC(=O)N2CCOCC2)c2ccco2)cc1 (configuration not stated),2%,>57
COc1ccc(-c2nnc(SCC(=O)c3ccc(C)o3)o2)cc1,19%,>57
C[C@]1(C(=O)NCC2CC2)C=C[C@@H](Cc2ccccc2)N1C(=O)c1ccccc1,3%,nt
O=C(Nc1cccc(F)c1)C1CCN(C(=O)Cc2ccccc2)CC1,-11%,>57
CCCC(c1nnnn1CCOC)N1CCN(C(=O)c2ccco2)CC1 (configuration not stated),-6%,>57
Nc1nnc(SCc2ccc(F)cc2Cl)s1,3%,>57
O=C1O/C(=C\C(=O)N2CCOCC2)c2ccccc21,-25%,nt
Cc1cc2c(cc(C(=O)O)n2C)s1,?,>57
CCC(=O)NC(=Nc1nc2ccccc2s1)NC(=O)CC,?,>57
Cn1c(C(=O)OCC(=O)NCc2cccs2)cc2sccc21,2%,>57
CCCN(CCC)C(=O)Cc1c(-c2ccc(Cl)cc2)nc2c(Cl)cc(Cl)cn12,-12%,>57
CCCOP(=O)(c1ccc(N(C)C)cc1)C(O)c1cc(OC)c(OC)c(OC)c1 (configuration not stated),1%,>57
CC1C=CCC2C(=O)N(c3cccc(C(=O)N4CCCCCC4)c3)C(=O)C12 (configuration not stated),-2%,>57
CCC(CC)C(=O)Nc1c2c(nn1-c1ccc(OC)cc1)CS(=O)C2 (configuration not stated),0%,>57
Cc1cc(C(=O)CCC(=O)N2CCN(S(=O)(=O)c3cccs3)CC2)c(C)s1,-18%,>57
# (listing goes on)
SMILES,Anthrax LT inh,Prx2 Sm inh
CCn1c(=O)cc(SCC(=O)NCCCN2CCN(c3ccc(F)cc3)CC2)c2ccccc21,nt,>57
Cc1ccc(SC(C)C(=O)N2CCCC2)cc1 (configuration not stated),-5%,>57
Cc1ccc2c(c1)c1c3n2CCN(C(=O)C2CC2)C3CCC1 (configuration not stated),?,>57
CCOC(=O)N(C)c1ccc(C(O)(C(F)(F)F)C(F)(F)F)cc1,-20%,nt
CC(C)(C)C1=C(C#N)C(c2cc3c(cc2Br)OCO3)C(C#N)=C(N)O1 (configuration not stated),-6%,>57
CC(NC(=O)CNC(=O)OCc1ccccc1)C(=O)N1CC(O)CC1C(=O)OCc1ccccc1 (configuration not stated),?,>57
COCCNC(=O)c1sc2nc(-c3ccccc3)cn2c1C,3%,>57
Cc1cccc(-c2c3c(=O)n(C)c(=O)n(C)c3cn2C(C)C)c1,?,>57
O=C(CCNc1ccc(F)c(Cl)c1)c1ccco1,?,nt
O=C(Nc1nnc(CCN2CCCCC2)s1)C1CCCCC1,nt,>57
O=C(NCc1ccco1)c1cc(-c2cccc(Cl)c2)on1,13%,>57
O=C(CSc1ncnc2c1oc1ccccc12)OCc1ccccc1,8%,>57
COc1ccc(NC(=O)N2CCCC3(CCN(C(=O)c4cccc(F)c4)CC3)C2)cc1,?,>57
COC(=O)c1cccc(S(=O)(=O)N2CCN(c3nc4ccccc4s3)CC2)c1,-13%,>57
Cc1ccc(NC(=O)CN2C(=O)NC3(CCC(C)CC3)C2=O)c(Cl)c1 (configuration not stated),?,>57
Cc1ccc(NC(=O)c2ccc(F)c(S(=O)(=O)N3CCOCC3)c2)cc1F,3%,>57
Cc1cccc(C)c1NC(=O)CSc1nnc(-c2ccoc2C)n1C,2%,>57
CN(CC[C@@H](Oc1ccc(-c2ccccc2)cc1)c1ccc(F)cc1)CC(=O)O,2%,>57
Cc1cc(C)c(NC(=O)CN2CCN(C)CC2)c(C)c1,-6%,>57
N[C@@H](C(=O)O)c1ccc(C(=O)O)c(O)c1,-9%,>57
COc1ccc(Cl)cc1N(C)C(=O)CCc1nc(-c2ccc(C)cc2)no1,-4%,>57
CCSc1nnc(NC(=O)CSc2nnc(Cc3cccn3C)n2-c2ccc(F)cc2)s1,3%,>57
CC(=O)N1CCc2cc(Br)cc(S(=O)(=O)NCCN3CCCCC3C)c21 (configuration not stated),3%,>57
Cc1noc(C)c1S(=O)(=O)N1CCCC(C(=O)Nc2cccnc2)C1 (configuration not stated),-2%,>57
Cc1cccc(NC(=O)C2CCN(S(=O)(=O)c3cccc4cccnc34)CC2)c1,?,>57
COc1ccc(-c2noc(CN(C(=O)c3ccc(OC(C)=O)cc3)C(C)C)n2)cc1OC,-12%,>57
O=C(Nc1ccccc1C(F)(F)F)c1cc(S(=O)(=O)N2CCOCC2)ccc1F,5%,>57
CC(C)(C)c1ccc(-c2nnc3sc(-c4ccncc4)nn23)cc1,-7%,>57
C#CCOCCCC(=O)O,-14%[8 µM],>57
O=C(Nc1ccccc1)c1cccc(N2CCCC2=O)c1,11%,>57
N#Cc1nc(-c2ccc(F)cc2)oc1NCc1cccc2c1OCO2,?,>57
O=C(C1CCC(C(=O)N2CCCCC2)CC1)N1CCCCC1 (configuration not stated),0%,>57
CC1CC(C)CN(c2nc3c(c(=O)[nH]c(=O)n3C)n2CCCSc2nc3ccccc3s2)C1 (configuration not stated),0%,>57
Cn1c(=O)n(C)c2cc(S(=O)(=O)N3CCOCC3)ccc21,-16%,>57
CCOC(=O)c1c(C)c2c(n1C)CCC/C2=N\O,-3%,>57
CCN1CCCC1CN(Cc1cc2cc(C)ccc2[nH]c1=O)C(=O)Nc1ccccc1OC (configuration not stated),3%,>57
N#CC(C(=O)OC1CCCCC1)c1nc2ccccc2nc1N1CCOCC1 (configuration not stated),4%,>57
c1ccc(Cn2c(Nn3cnnc3)nc3ccccc32)cc1,nt,>57
CN(C)C(=O)c1ccc(-c2nc(N(C)C)c3ccccc3n2)cc1,?,>57
COc1cccc(-c2nnc(SCC(=O)N3CCOCC3)o2)c1,16%,>57
C=CCNC(=O)C1CC(=O)N(c2ccc(OCC(=O)NCc3ccccc3)cc2)C1 (configuration not stated),2%,>57
COc1cc(Nc2cc(C)nc3ncnn23)cc(OC)c1,3%,>57
COc1cccc(OC)c1C(=O)N1CCOCC1,6%,>57
Cc1ccccc1N(C(=O)Cn1nnc2ccccc21)C(C(=O)NCc1ccco1)c1ccncc1 (configuration not stated),?,>57
Cc1cc(NC(=O)COC(=O)COc2cccc3c2OC(C)(C)C3)no1,0%,>57
CC(=O)c1cccc(S(=O)(=O)N(CCCO)Cc2cc3ccc(C)cc3[nH]c2=O)c1,-1%,>57
O=C(CN1CC(c2ccccc2)CC1=O)Nc1ccccc1 (configuration not stated),-5%,>57
O=C(COC(=O)c1ccc(Br)o1)NCc1ccco1,15%,>57
O=C(C1CCCN1C(=O)c1cccs1)N1CCN(Cc2ccc3c(c2)OCO3)CC1 (configuration not stated),-8%,>57
